From PubChem
Mtb betalactam = beta-lactam sensitization of Mtb H37Rv | M. tuberculosis H37Rv growth with meropenem, percent inhibition; hits of this screen are not shown here | inhibition, % at 25 µM | hit rate 0.27% among 330,000 | AID 434955;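 active means about 74% or more and at least 40 points above the plate without the antibiotic, then above 30% in a dose series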;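 further: growth measured after seven days incubation then overnight dye step; 0% = bacteria only wells and 100% = bacteria with antibiotic; twin plates without the antibiotic show which effects depend on it; some results filed as inactive read as strong as hits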
Starred values were filed as active, the others as inactive. A portion of the library (hit frequency here may not be typical).

Molecule,Mtb betalactam
CCOc1ccc(NC(=O)COC(=O)c2ccc(S(=O)(=O)N3CCOCC3)cc2)cc1,6.5
COc1ccc(NC(=O)c2ccc(S(=O)(=O)N3CCCC3)cc2)cc1OC,1.8
O=C(NCc1ccccc1)c1c[nH]c2ccccc2c1=O,2.3
O=C(c1cccc(S(=O)(=O)N2CCOCC2)c1)N(Cc1ccco1)Cc1cccs1,1.0
CCN1C(=O)CC(c2ccccc2)N(C2CCCC2)c2nc(Nc3ccc(C(=O)NC4CCN(C)CC4)cc3OC)ncc21 (centres undefined),61.6
CC(Oc1ccc(F)cc1)C(=O)Nc1ccccc1C(=O)N1CCCCC1 (centres undefined),5.6
O=C(COc1ccc(-n2cnnn2)cc1)Nc1ccc(F)c(F)c1,-7.1
NS(=O)(=O)c1cccc(NC(=O)COC(=O)CCC2CCCC2)c1,-5.4
C[C@@H](C(=O)OCC(=O)c1ccc(F)c(F)c1)N1C(=O)C2CCCCC2C1=O (some centres undefined),3.5
CCCCn1c(N)c(N(C)C(=O)c2ccc(-n3cccn3)cc2)c(=O)[nH]c1=O,-9.2
Cc1ccc(S(=O)(=O)Nc2cccc3c2O[C@H](CN(C)Cc2ccc(-c4ccccc4)cc2)[C@@H](C)CN([C@H](C)CO)C3=O)cc1,-10.2
O=C(CC1C[C@H](C(=O)N2CCCCC2)[C@@]2(CCc3ccccc3)c3[nH]c4ccccc4c3CCN2C1=O)NCCCn1ccnc1 (some centres undefined),39.9
COc1cccc(C(=O)NOCc2ccc(C)cc2)c1OC,21.8
CC(C(=O)Nc1nnc(C2CC2)s1)N1C(=O)C2CC=CCC2C1=O (centres undefined),-3.3
CCN(C(=O)COn1nnc2ccc(S(=O)(=O)N(C)C)cc21)C1CCS(=O)(=O)C1 (centres undefined),2.0
COCCN(C(=O)CSc1ccc2c(c1)OCCO2)c1c(N)n(CC(C)C)c(=O)[nH]c1=O,-7.0
CN(c1ccccc1)S(=O)(=O)c1cccc(NC(=O)CCNC(=O)c2ccc(Cl)cc2)c1,-1.4
Cc1ccc(CNC(=O)C2CCC(CNS(=O)(=O)c3cccs3)CC2)cc1 (centres undefined),0.3
Cc1cscn1,0.0
Cc1cc(NC(=O)CN2C(=O)NC(CC(C)C)C2=O)no1 (centres undefined),-2.6
CN(CC(=O)Nc1ccc(F)c(F)c1F)C(=O)/C=C/c1ccco1,1.9
C[C@H](CO)N1C[C@H](C)[C@@H](CN(C)S(=O)(=O)c2ccccc2)Oc2c(NS(=O)(=O)c3cccs3)cccc2C1=O,0.6
O=C1CN(C(=O)COC(=O)COc2ccccc2)c2ccccc2N1,-0.9
CC(C)Oc1ccc(S(=O)(=O)N2CCOCC2)cc1NC(=O)CC1OC(=O)c2ccccc21 (centres undefined),-15.1
CN(C)S(=O)(=O)c1ccc(Cl)c(NC(=O)CN2C(=O)NC3(CCc4ccccc43)C2=O)c1 (centres undefined),-1.4

Reprinted from the part before: six compounds, then new ones.
Molecule,Mtb betalactam
Cc1cc(NC(=O)CN2C(=O)NC(CC(C)C)C2=O)no1 (centres undefined),-2.6
CN(CC(=O)Nc1ccc(F)c(F)c1F)C(=O)/C=C/c1ccco1,1.9
C[C@H](CO)N1C[C@H](C)[C@@H](CN(C)S(=O)(=O)c2ccccc2)Oc2c(NS(=O)(=O)c3cccs3)cccc2C1=O,0.6
O=C1CN(C(=O)COC(=O)COc2ccccc2)c2ccccc2N1,-0.9
CC(C)Oc1ccc(S(=O)(=O)N2CCOCC2)cc1NC(=O)CC1OC(=O)c2ccccc21 (centres undefined),-15.1
CN(C)S(=O)(=O)c1ccc(Cl)c(NC(=O)CN2C(=O)NC3(CCc4ccccc43)C2=O)c1 (centres undefined),-1.4
CC1CCCC(NC(=O)CSc2nncs2)C1C (centres undefined),-9.0
CSc1ncccc1C(=O)OCC(=O)NC12CC3CC(CC(C3)C1)C2,-0.6
COc1ccc(Cl)cc1C(=O)NNC(=O)c1n[nH]c2ccccc12,3.4
O=C(NC1CCCC1)C1CC(O)CN1C(=O)Nc1ccccc1 (centres undefined),-24.2
COc1cc(OC)cc(C(=O)NNC(=O)CN2C(=O)NC3(CCCC3)C2=O)c1,0.2
O=C(O)c1cc(S(=O)(=O)Nc2ccc(OCc3ccccc3)cc2)ccc1Br,80.2
CCCCn1c(N)c(N(CC(C)C)C(=O)C2=COCCO2)c(=O)[nH]c1=O,4.3
Clc1ccc(CCC(Cn2ccnc2)Sc2c(Cl)cccc2Cl)cc1 (centres undefined),99.0
Cc1cc(C(=O)CSc2nc(N)cc(N)n2)c(C)n1CC1CCCO1 (centres undefined),-6.2
COc1ccc(C(=O)NC2CCSc3ccccc32)cc1F (centres undefined),-2.2
CCCN(C(=O)c1cccc(S(=O)(=O)N2CCCc3ccccc32)c1)C1CCS(=O)(=O)C1 (centres undefined),5.0
Cc1ccc2c(c1)C(=O)N1[C@H]3c4cc(Br)ccc4OC[C@@H]3[C@H](c3ccccc3)[C@]1(C)C(=O)N2,1.6
COc1cccc(NC(=O)CN(C)C(=O)CSCC(=O)Nc2ccc(C)cc2)c1,1.5
CC1(C)NC(=O)N(CC(O)CN(c2ccccc2)S(=O)(=O)c2ccccc2)C1=O (centres undefined),-0.9
CC1CCCCC12NC(=O)N(CC(=O)OCC(=O)NC(=O)c1ccccc1)C2=O (centres undefined),4.1
C[C@H](CO)N1C[C@H](C)[C@@H](CN(C)S(=O)(=O)c2ccccc2)Oc2c(NS(=O)(=O)c3ccc(F)cc3)cccc2C1=O,-0.3
COc1ccccc1N1CCN(C(=O)COc2cccc3ccccc23)CC1,-1.7
CCn1c(/N=C/c2ccc(OC)cc2O)nc2ccccc21,-0.5
C[C@H](CO)N1C[C@H](C)[C@@H](CN(C)CC2CCCCC2)Oc2ccc(NC(=O)Cn3cnnn3)cc2C1=O,3.3
COC(=O)C1=C(c2c(C)noc2C)C[C@@H]2CC[C@H]1N2C(=O)NCCNC(C)=O,3.9
O=C(CSc1nc2ccccc2c(=O)n1-c1ccccc1Cl)NC1CCS(=O)(=O)C1 (centres undefined),1.9
NC(=O)c1ccc(NC(=O)CSC(=O)c2ccccc2)cc1,2.2
CC(=O)N(C)Cc1ccc(C(=O)CSc2nnc(C3CC3)n2C2CC2)cc1,-11.9
C[C@H](CO)N1C[C@H](C)[C@@H](CN(C)CC2CC2)Oc2c(NS(=O)(=O)c3ccc(F)cc3)cccc2C1=O,-0.6
CSCCC(NC(=O)COc1ccccc1)C(=O)N1CCCCCC1 (centres undefined),-2.9
CCCc1cc(=O)[nH]c(SCC(=O)c2cc(C)n(CC3CCCO3)c2C)n1 (centres undefined),3.7
Cc1c(Cl)cnc(NC(=O)CSc2n[nH]c(N)n2)c1Cl,-1.5
COc1ccc(/C=C/C(=O)OC(C)CN2CCCCC2)cc1 (centres undefined),8.6
Cc1ccc(NC(=O)c2ccccc2)cc1C,31.3
C[C@@H]1COC(=O)[C@@H](Cc2ccc(F)cc2)C/C=C\C[C@@H](CC(=O)N(CCO)Cc2ccccc2)C(=O)N1,-6.4
O=C(Cn1cnc([N+](=O)[O-])c1)NCCc1ccccc1,-11.4
C[C@H](NC(=O)c1ccccc1)C(=O)OCC(=O)c1c[nH]c2ccccc12,0.1
Cc1cccc(C)c1-n1nnnc1SCC(=O)c1c(N)n(C2CC2)c(=O)[nH]c1=O,5.6
CC(C)(Oc1ccc(Cl)cc1)C(=O)Nc1cccc(S(=O)(=O)NC2=NCCC2)c1,1.8
O=C(COC(=O)CCN1C(=O)c2ccccc2C1=O)Nc1ccccc1[N+](=O)[O-],1.3
Cc1cccc(NC(=O)COC(=O)CSc2ccccc2)c1C,-3.4
CCN(CC)S(=O)(=O)c1ccc(/C=C/C(=O)OCC(=O)NCc2cccs2)cc1,21.0
COc1ccc2nc(C)cc(N3CCN(S(=O)(=O)c4ccccc4F)CC3)c2c1,1.8
O=C(CCc1nc(-c2ccc(F)cc2)no1)Nc1cccc(C(=O)NC2CC2)c1,-7.1
CCSc1nnc(NC(=O)CCN2C(=O)C3CCCCC3C2=O)s1 (centres undefined),-0.6
COc1ccc(S(=O)(=O)N2CCNCC2)cc1,-5.2
Cc1ccc(OC(C)C(=O)N(C)c2ccccc2)c([N+](=O)[O-])n1 (centres undefined),-4.2
CCN(CC(=O)Nc1ccccc1OC)C(=O)c1ccccc1Sc1ccccc1C#N,-6.4
COCCN(Cc1nnc(-c2cccs2)o1)C(=O)c1cccc(S(=O)(=O)N2CCOCC2)c1,-1.1
Cc1ccc(NC(=O)C2CCCCC2)cc1C,42.3
COc1cc(C(=O)N2C[C@@H]3CCC[C@H]2C3)ccc1OC1CCN(C(C)=O)CC1,-4.0
COc1cc(CC(=O)OCC(=O)NC(C)c2ccccc2)cc(OC)c1OC (centres undefined),-1.4
O=C(COc1ccc(Br)cc1)NNC(=O)c1ccc(-n2cncn2)c([N+](=O)[O-])c1,-10.3
CN(C)C1=NCCN1CCCC1CCCC1,-9.3
CCN(C(=O)CSc1ncnc2sccc12)c1c(N)n(Cc2ccccc2)c(=O)[nH]c1=O,-3.8

In the list so far, these have a furan ring, fused or not.
Molecule,Mtb betalactam
O=C(c1cccc(S(=O)(=O)N2CCOCC2)c1)N(Cc1ccco1)Cc1cccs1,1.0
CN(CC(=O)Nc1ccc(F)c(F)c1F)C(=O)/C=C/c1ccco1,1.9

Further results:
Molecule,Mtb betalactam
C=C(C)C(O)CC/C(C)=C/Cc1c(O)ccc(C(=O)/C=C/c2ccc(O)cc2)c1O (centres undefined),-5.7
N#CCCN(C(=O)COC(=O)c1ccc(S(=O)(=O)N2CCOCC2)cc1)c1ccccc1,-4.4
CC1CCCC(NC(=O)CN2C(=O)NC(Cc3c[nH]c4ccccc34)C2=O)C1C (centres undefined),-5.5
CN(C(=O)CSC(=O)c1ccccc1)c1ccccc1,-1.7
CC1CCCCN1CC(=O)Nc1ccc2c(c1)OCO2 (centres undefined),4.7
CSc1nc(N)nc2c1ncn2CC(=O)NCc1ccccc1,2.6
Cc1nnc(NC(=O)C2CC(=O)N(c3ccc4c(c3)OCCO4)C2)s1 (centres undefined),2.4
COc1ccc(CN(C)C(=O)CNC(=O)c2cccs2)c(OC)c1,-3.0
C=CCOc1ccc(/C=C/C(=O)OCC(=O)N2CCC(c3ccccc3)=N2)cc1,2.6
CCCc1cc(=O)oc2cc(OCC(=O)NCCc3c[nH]c4ccccc34)ccc12,-0.9
CN1C(=O)C(=Cc2ccc(Sc3ccccc3)o2)C(=O)N(C)C1=S,46.0
Cc1ccc(S(=O)(=O)NC23CC4CC(CC(C4)C2)C3)cc1,3.4
COc1cc(C(=O)OCC(=O)NC2CCCCC2)cc2c1OCCO2,-0.5
C[C@H](CO)N1C[C@H](C)[C@H](CN(C)S(=O)(=O)c2cccs2)Oc2ccc(NC(=O)Nc3ccc4c(c3)OCO4)cc2CC1=O,68.7
CCCCOC(=O)COc1ccc(Cl)cc1Cl,48.2
N#Cc1ccccc1COC(=O)CCC(=O)c1cccs1,15.8
CCC(CO)Oc1cc(NCc2ccc(C(F)(F)F)cc2)c2ncn(C(C)C)c2c1 (centres undefined),7.4
COc1ccc([C@H]2C(C(=O)O)=C[C@@H](CC3CCCC3)N2S(=O)(=O)c2ccc(C)cc2)cc1OC,2.2
CC1CN(C(=O)COC(=O)c2ccc3ncsc3c2)CC(C)O1 (centres undefined),0.8
Cc1cc(OCC(=O)OCC(=O)NCC2CCCO2)ccc1Cl (centres undefined),-4.9
COc1cccc(-c2cc3onc(-c4ccccc4)c3c(=O)n2C)c1,-7.0
COc1ccc(S(=O)(=O)NCCC(=O)OCC(=O)c2ccc[nH]2)cc1[N+](=O)[O-],-3.8
CC(=O)c1c(C)[nH]c(C(=O)COc2ccc3c(C)cc(=O)oc3c2)c1C,-6.8
O=C(CN1C(=O)NC2(CCc3ccccc32)C1=O)Nc1ccccc1Cl (centres undefined),-11.1
O=C(Cc1ccc(Br)cc1)NNC(=O)c1cccs1,-11.3

3 structures already listed, sorted by molecular weight, high to low:
Molecule,Mtb betalactam
C=C(C)C(O)CC/C(C)=C/Cc1c(O)ccc(C(=O)/C=C/c2ccc(O)cc2)c1O (centres undefined),-5.7
CN1C(=O)C(=Cc2ccc(Sc3ccccc3)o2)C(=O)N(C)C1=S,46.0
CC1CN(C(=O)COC(=O)c2ccc3ncsc3c2)CC(C)O1 (centres undefined),0.8

Continued:
Molecule,Mtb betalactam
COc1ccccc1COC(=O)c1ccc(S(=O)(=O)N2CCOCC2)cc1,4.3
Cc1occc1C(=O)N/N=C/c1ccc(-c2ccccc2)cc1,6.2
Cc1cc(Cl)ccc1OCC(=O)NNC(=O)c1ccco1,-6.2
OCC[C@H]1C[C@H](O)[C@@H](O)[C@@]2(CCc3ccccc3CO2)O1,-9.8
COc1cccc(C(=O)OCC(=O)NCCC2=CCCCC2)c1,-5.8
CC(C)NC(=O)Nc1cccc2c1O[C@H](CN(C)C(=O)Nc1ccccc1)[C@@H](C)CN([C@H](C)CO)C2=O,-8.2
COc1ccc(-n2nnnc2SCC(=O)N2CCCC2=O)cc1,-17.9
Cc1ccc(S(=O)(=O)NN=Cc2ccc(N3CCOCC3)cc2)cc1[N+](=O)[O-],-2.3
COc1ccc(S(N)(=O)=O)cc1C(=O)NC1CCCc2ccccc21 (centres undefined),-1.0
COC(=O)c1ccc(CNC(=O)c2ccc3c(c2)NC(=O)CS3)cc1,-3.6
CC1=NCCc2c1[nH]c1cc(O)ccc21,0.3
Nc1nccnc1C(=O)OCC(=O)NCCc1ccc(Cl)cc1,-4.5
CC(C)(C)OC(=O)C[C@H]1C/C=C\C[C@@H](CC(=O)N(CCO)Cc2ccccc2)C(=O)N[C@@H](Cc2ccccc2)COC1=O,8.0
C[C@@H]1CN([C@@H](C)CO)C(=O)c2cccc(NS(C)(=O)=O)c2O[C@H]1CN(C)CC1CCCCC1,13.4
